FPR binding: FPR binders displacing fluorescent formyl peptide, primary screen, U937-FPR cells, fMLFK-FITC, flow cytometry (AID 362) | U937-FPR cells, fMLFK-FITC displacement, flow cytometry; stronger effect = higher value; test concentration not given here; most inactive calls were filed without a number and no value below 0 was filed | inhibition, % | 4,300 compounds, 1% hits;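 active = inhibition of labelled peptide binding to the formyl peptide receptor of at least 65%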;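 also: plate controls were buffer control wells for no effect and unlabeled fMLFF blocking peptide for full effect; higher means less cell fluorescence so more probe displaced; part of the set was picked by virtual screening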
* = called active by the depositor; i = inactive. Not all compounds are listed. The share of hits here may be higher or lower than overall.

FPR binding,mol
13.5,COC(=O)CNc1c(-c2ccccn2)nc2ccc(Br)cn12
i,Cc1ccc(C)c(N2CCN(C(=O)c3cn(C4CCCC4)c(=O)c4c3c3ccccc3n4C)CC2)c1
i,COC(=O)c1cc(C(=O)N2CC(C)CC(C)C2)cc([N+](=O)[O-])c1 (stereo unspecified)
i,CCN(C(=O)c1cn(CC(C)C)c(=O)c2cc(OC)c(OC)cc12)c1ccc(C)c(C)c1
i,CCOc1cccc(C2C(C(=O)OC3CCCCCC3)=C(C)NC3=C2C(=O)C(C(=O)OC)C(C)C3)c1 (stereo unspecified)
8.0,CC(C)Cn1cc(C(=O)NCc2ccc(F)cc2Cl)c2c3ccccc3n(C)c2c1=O
i,CCOC(=O)c1c(NC(=O)C2CC(=O)OC23CCCCC3)sc2c1CCCC2 (stereo unspecified)
22.2,Cc1ccc2ncnc(NC(CC(C)C)C(=O)O)c2c1 (stereo unspecified)
2.4,CCOC(=O)C1=C(C)NC2=C(C(=O)C(C(=O)OC)C(C)C2)C1c1cc(Br)c(OCC)c(OC)c1 (stereo unspecified)
11.4,COC(=O)C1C(=O)C2=C(CC1C)NC(C)=C(C(=O)OC1CCCC1)C2c1cccc(Cl)c1 (stereo unspecified)
45.9,Cc1ccc(-n2c3c(c(=O)[nH]c2=O)C(C(F)(F)F)(C(F)(F)F)NC(=O)N3)cc1
3.8,CC(C)=C1C2C=CC1C1C(=O)N(c3cc([N+](=O)[O-])ccc3C)C(=O)C21 (stereo unspecified)
30.7,CC(=O)c1ccc(N2CCN(C(=O)C3CCC(CNS(=O)(=O)c4ccc(Br)s4)CC3)CC2)cc1 (stereo unspecified)
57.0,CC1(C)CC(=O)C(C(C2=C(O)CC(C)(C)CC2=O)c2cccc(O)c2O)C(=O)C1 (stereo unspecified)
15.8,COC(=O)C1C(=O)C2=C(CC1C)NC(C)=C(C(=O)OC1CCCC1)C2c1cccc(OC)c1 (stereo unspecified)

More entries
FPR binding,mol
i,CCCOC(=O)C1=C(C)NC2=C(C(=O)C(C(=O)OC)C(C)C2)C1c1ccccc1[N+](=O)[O-] (stereo unspecified)
i,O=[N+]([O-])c1ccc2c(c1)C=C1CCCCC1(N1CCCC1)O2 (stereo unspecified)
11.3,Cc1ccc(Cn2ccc(NC(=O)C3C4CCC(C4)C3C(=O)O)n2)cc1 (stereo unspecified)
i,CCC(C)NC(=O)c1cn(CC(C)C)c(=O)c2cc(OC)c(OC)cc12 (stereo unspecified)
i,COC(=O)C1C(=O)C2=C(CC1C)NC(C)=C(C(=O)OC(C)C)C2c1ccccc1F (stereo unspecified)
i,COC(=O)c1cccc(N2C(=O)C3C4CCC(C4)C3C2=O)c1 (stereo unspecified)
i,CC1(C)CC(=O)C(=Cc2cn(-c3ccccc3)nc2-c2ccc(Cl)cc2)C(=O)C1
1.2,O=C(CSc1nc2ccccc2c(=O)n1CC1CCC(C(=O)NCCc2ccccc2)CC1)c1ccccc1 (stereo unspecified)
i,O=C(CSc1c2c(nc3ccccc13)CCCC2)NCC1CCCO1 (stereo unspecified)
i,O=c1oc2cc(OCc3ccccc3F)c(Cl)cc2c2c1CCCC2
i,CCC(C)NC(=O)C1CCC(CNS(=O)(=O)c2ccc(Cl)cc2)CC1 (stereo unspecified)
i,CCc1cc(=O)oc2cc(OCC(=O)OC)c(Cl)cc12
i,COc1cc(C2C3=C(CC(C)(C)CC3=O)OC3=C2C(=O)CC(C)(C)C3)ccc1OCc1ccc(C)cc1
6.0,Cc1ccccc1S(=O)Cc1ccc(C(=O)N2CC(C)CC(C)C2)o1 (stereo unspecified)
0.4,CC(C)Cn1cc(C(=O)N2CCCC(C)C2)c2c3ccccc3n(C)c2c1=O (stereo unspecified)

The list continues:
FPR binding,mol
0.7,COC(=O)C1C(=O)C2=C(CC1C)NC(C)=C(C(=O)OC1CCCCCC1)C2c1ccccc1C (stereo unspecified)
i,CCOC(=O)C1=C(C(F)(F)F)Nc2ncnn2C1c1cc(OC)c(OC)cc1OC (stereo unspecified)
21.0,CC(C)C(NC(=O)c1cccs1)C(=O)NC1=NCCS1 (stereo unspecified)
i,O=C(O)C1C2C=CC(C2)C1C(=O)N1CCN(CCO)CC1 (stereo unspecified)
5.1,CCOC(=O)c1cccc(N2C(=O)C3C(C2=O)C2C=CC3C23CC3)c1 (stereo unspecified)
i,CC1(C)CC(CC(=O)N2CCOCC2)(c2ccccc2)CCO1 (stereo unspecified)
i,CCC(C)OC(=O)C1=C(C)NC2=C(C(=O)C(C(=O)OC)C(C)C2)C1c1cccc([N+](=O)[O-])c1 (stereo unspecified)
i,COc1cc(OC)c(Nc2nc(C)nc3sc4c(c23)CCCC4)cc1Cl
i,CC1=C(C)CS(=Nc2ccccc2[N+](=O)[O-])N(S(=O)(=O)c2ccccc2)C1 (stereo unspecified)
i,CCOC(=O)C1CCCc2c1[nH]c1c(C(=O)O)cccc21 (stereo unspecified)
7.0,O=c1oc2cc(O)ccc2c2c1CCC2
10.5,CCOC(=O)c1cccc(N2C(=O)C3C4CCC(C4)C3C2=O)c1 (stereo unspecified)
0.4,CCCOC(=O)C1=C(C)NC2=C(C(=O)C(C(=O)OC)C(C)C2)C1c1ccc(C)o1 (stereo unspecified)
1.2,O=C(O)C1CC=CCC1C(=O)Nc1ccc2c(c1)OCO2 (stereo unspecified)
i,COC(=O)C1=C(N)OC2=C(C(=O)CC(C)(C)C2)C1c1cccnc1 (stereo unspecified)

New compounds follow.
FPR binding,mol
10.2,CCOC(=O)C1=C(C)NC2=C(C(=O)C(C(=O)OC)C(C)C2)C1c1cc(OC)c(OC)c(OC)c1 (stereo unspecified)
i,Cc1ccc(S(=O)(=O)NCC2CCC(C(=O)NC3CCCC(C)C3C)CC2)cc1 (stereo unspecified)
1.7,CCOC(=O)Cn1c2c(c(=N)c3c1CCC3)CCC2
i,COc1cc2c(C(=O)N3CCN(Cc4ccc5c(c4)OCO5)CC3)cn(CC(C)C)c(=O)c2cc1OC
6.8,CC(C)Cn1cc(C(=O)N2CCN(Cc3ccccc3)CC2)c2c3ccccc3n(C)c2c1=O
10.9,CC(C)Cn1cc(C(=O)NCCN2CCN(Cc3ccccc3)CC2)c2c3ccccc3n(C)c2c1=O
i,CCSCCOC(=O)C1=C(C)NC2=C(C(=O)C(C(=O)OC)C(C)C2)C1c1c(F)cccc1Cl (stereo unspecified)
i,COCCCNC(=O)CC(NS(=O)(=O)c1ccc(OC)cc1)C(C)C (stereo unspecified)
23.4,CCCOC(=O)c1c(NC(=O)C2CCCCC2C(=O)O)sc2c1CCC(C)C2 (stereo unspecified)
i,CCOC(=O)C1=C(C)NC2=C(C(=O)C(C(=O)OC)C(C)C2)C1c1ccccc1OCC (stereo unspecified)
i,O=C(NC1CCCCC1)C(c1cc2c(cc1[N+](=O)[O-])OCO2)N1CCc2ccccc21 (stereo unspecified)
i,CN1C(=O)NC(c2ccc(Cl)cc2)C2=C1CC(C)(C)CC2=O (stereo unspecified)
3.8,COc1ccc(C2C(C#N)=C(N)OC3=C2C(=O)CC(C)(C)C3)cc1 (stereo unspecified)
i,Cc1ccc(S(=O)(=O)/N=C(\CN2CCCCC2)N2CCCN(S(=O)(=O)c3ccc(C)cc3)C2C(C)C)cc1 (stereo unspecified)
i,CCOC(=O)C1=C(N)OC2=C(C(=O)CC(C)(C)C2)C1c1ccc(OC)c(COc2cccc(C(F)(F)F)c2)c1 (stereo unspecified)

Other structures follow:
FPR binding,mol
11.9,Cc1ccc(-c2[nH]nc3c2C(c2cc(C(C)(C)C)c(O)c(C(C)(C)C)c2)C(C#N)=C(N)O3)cc1 (stereo unspecified)
i,Cc1ccc(S(=O)(=O)NCC2CCC(C(=O)N3CCN(c4cc(C)ccc4C)CC3)CC2)cc1 (stereo unspecified)
i,CC(C)CC(C(=O)Nc1oc(-c2ccccc2)c(-c2ccccc2)c1C#N)N1C(=O)c2ccccc2C1=O (stereo unspecified)
23.6,CCCOC(=O)C1=C(C)NC2=C(C(=O)C(C(=O)OC)C(C)C2)C1c1ccc(N(C)C)cc1 (stereo unspecified)
8.7,CCN(CC)Cc1c(O)ccc2c(=O)c(Oc3ccccc3Br)c(C(F)(F)F)oc12
i,C=CCOc1ccc2c(=O)c(Oc3cc(C)cc(C)c3)c(C(F)(F)F)oc2c1
i,CCCOC(=O)C1=C(C)NC2=C(C(=O)C(C(=O)OC)C(C)C2)C1c1ccccc1Br (stereo unspecified)
33.3,O=C(COc1cccc(N2C(=O)C3C4CCC(C4)C3C2=O)c1)c1ccc(Cl)cc1 (stereo unspecified)
3.6,Cc1nccn1-c1c2c(c(C#N)c3nc4ccccc4n13)CCC2
i,Cc1cc(C)nc(SC2CCCCC2NS(=O)(=O)c2ccc(Cl)cc2)n1 (stereo unspecified)
8.1,COCCOC(=O)C1=C(C)NC2=C(C(=O)C(C(=O)OC)C(C)C2)C1c1ccc2c(c1)OCO2 (stereo unspecified)
i,O=C(COc1ccccc1Cl)Oc1ccc2c3c(c(=O)oc2c1)CCC3
i,CN1CCN(C(=O)CSc2c3c(nc4ccccc24)CCCC3)CC1
i,CCSCCOC(=O)C1=C(C)NC2=C(C(=O)C(C(=O)OC)C(C)C2)C1c1ccc(OCc2ccccc2)c(OC)c1 (stereo unspecified)
i,CC(=O)Nc1ccc(S(=O)(=O)N(Cc2ccc(Cl)cc2)CC2CCC(C(=O)O)CC2)cc1 (stereo unspecified)

Seven entries out of the list, ordered by heavy-atom count, highest first:
FPR binding,mol
i,CCSCCOC(=O)C1=C(C)NC2=C(C(=O)C(C(=O)OC)C(C)C2)C1c1ccc(OCc2ccccc2)c(OC)c1 (stereo unspecified)
i,Cc1ccc(S(=O)(=O)NCC2CCC(C(=O)N3CCN(c4cc(C)ccc4C)CC3)CC2)cc1 (stereo unspecified)
8.1,COCCOC(=O)C1=C(C)NC2=C(C(=O)C(C(=O)OC)C(C)C2)C1c1ccc2c(c1)OCO2 (stereo unspecified)
i,CC(=O)Nc1ccc(S(=O)(=O)N(Cc2ccc(Cl)cc2)CC2CCC(C(=O)O)CC2)cc1 (stereo unspecified)
33.3,O=C(COc1cccc(N2C(=O)C3C4CCC(C4)C3C2=O)c1)c1ccc(Cl)cc1 (stereo unspecified)
i,O=C(COc1ccccc1Cl)Oc1ccc2c3c(c(=O)oc2c1)CCC3
3.6,Cc1nccn1-c1c2c(c(C#N)c3nc4ccccc4n13)CCC2

Remaining list, next part.
FPR binding,mol
i,COc1cc2c(C(=O)N(C)c3cccc(C(F)(F)F)c3)cn(CC(C)C)c(=O)c2cc1OC
24.3,COc1cc(C2C(C(=O)OC3CCCCC3)=C(C)NC3=C2C(=O)CCC3)cc(Cl)c1O (stereo unspecified)
i,CN(C)CC(C)(C)CN(CCC#N)S(=O)(=O)c1cccc2nsnc12
i,O=S(=O)(c1ccc(-c2csc(=Nc3cccc4ccccc34)n2CCCCO)cc1)N1CCCCC1
1.0,O=C(Oc1ccc2c3c(c(=O)oc2c1)CCC3)C1CCCCC1
i,CC1CCCN(Cc2c(O)ccc3cc(-c4nc5ccccc5s4)c(=O)oc23)C1 (stereo unspecified)
56.4,O=C(O)CN1C(=O)C2C3CC(C2C1=O)C1C(c2ccccc2)c2sc(=O)n(-c4ccccc4)c2SC31 (stereo unspecified)
8.9,CC1=C(C(=O)OC2CCCCC2)C(c2cccc([N+](=O)[O-])c2)n2ncnc2N1 (stereo unspecified)
i,CC(=O)Nc1ccc(S(=O)(=O)NCC2CCC(C(=O)NCCCN(C)Cc3ccccc3)CC2)cc1 (stereo unspecified)
i,COc1ccc(Br)cc1CN1CCCC(C(=O)N2CCCCC2)C1 (stereo unspecified)
i,COc1cc2c(C(=O)N(C)c3cccc(Cl)c3)cn(CC(C)C)c(=O)c2cc1OC
25.7,CC(=O)Nc1ccc(S(=O)(=O)NCC2CCC(C(=O)N3CCN(C)CC3)CC2)cc1 (stereo unspecified)
0.7,Cc1cccc(C)c1NC(=O)C1(NC(=O)c2cnccn2)CCCCC1
0.8,CC(C)CCNC(=O)c1cn(CC(C)C)c(=O)c2c1c1ccccc1n2C
i,CCOC(=O)C1C(=O)C=C(c2ccc(OC)cc2)CC1c1ccc(OC)c(OC)c1 (stereo unspecified)

Following part.
FPR binding,mol
56.6,COc1ccccc1CNC(=O)c1ccccc1C(=O)NC(CC(C)C)C(=O)NCc1ccccc1OC (stereo unspecified)
i,CC(C)CN(CC(C)C)S(=O)(=O)c1ccc(C(=O)Nc2ccccc2-c2nc3ccccc3o2)cc1
2.7,CC1(C)CC(=O)C2=C(C1)Nc1ncnn1C2c1ccc(C(F)(F)F)cc1 (stereo unspecified)
i,O=C(NCc1ccc(F)cc1)C1CCC(CNS(=O)(=O)c2ccc(Br)s2)CC1 (stereo unspecified)
i,N#Cc1c2c(c(N3CCN(CCOc4ccccc4)CC3)n3c1nc1ccccc13)CCC2
7.5,CC1(C)CC(=O)C2=C(C1)Nc1ncnn1C2c1ccc(OCc2ccccc2)cc1 (stereo unspecified)
8.6,COC(=O)c1nnn(-c2nonc2N)c1CN1CCC(C)CC1
5.4,COC(=O)C1C(=O)C2=C(CC1C)NC(C)=C(C(=O)OC(C)C)C2c1cc(OC)c(O)c([N+](=O)[O-])c1 (stereo unspecified)
i,CCCCOC(=O)C1=C(C)NC(=O)NC1c1cc(Cl)c(O)c(OC)c1 (stereo unspecified)
10.0,CCOC(=O)C1=C(C)NC2=C(C(=O)C(C(=O)OC)C(C)C2)C1c1ccc(N(C)C)cc1 (stereo unspecified)
16.2,Cc1ccc(S(=O)(=O)NCC2CCC(C(=O)NCCCN3CCC(C)CC3)CC2)cc1 (stereo unspecified)
i,O=C(CSc1nc2ccccc2c(=O)n1CC1CCC(C(=O)NCC2CCCO2)CC1)NCc1ccccc1 (stereo unspecified)

Four entries already listed, arranged by their value in FPR binding, low to high:
Molecule | FPR binding
CC1(C)CC(=O)C2=C(C1)Nc1ncnn1C2c1ccc(C(F)(F)F)cc1 (stereo unspecified) | 2.7
COC(=O)C1C(=O)C2=C(CC1C)NC(C)=C(C(=O)OC(C)C)C2c1cc(OC)c(O)c([N+](=O)[O-])c1 (stereo unspecified) | 5.4
CC1(C)CC(=O)C2=C(C1)Nc1ncnn1C2c1ccc(OCc2ccccc2)cc1 (stereo unspecified) | 7.5
COC(=O)c1nnn(-c2nonc2N)c1CN1CCC(C)CC1 | 8.6
